2A Renilla = lowers the Renilla signal of an FMDV 2A StopGo reporter. 120,000 tested, 0.32% active. AID 1745857. Potency, µM (titrated, usually from 57.5 µM), without a hit: top-dose signal change, negative = less light. HEK cells with a luciferase reporter of 2A StopGo recoding; active means well fitted falling curve with a large enough effect; inconclusive means small, poorly fitted or top-dose-only effect; inactive means no such curve, though single readings can be large or run the other way; note: nearly all actives have a fitted effect of over 55% in size; overnight with compound
2A firefly = FMDV 2A StopGo reporter, firefly signal; HEK cells with a luciferase reporter of 2A StopGo recoding; Potency, µM (series often up to 57.5 µM), for the others: top-dose signal change, negative = less light; 120,000 tested, 0.23% active; AID 1745856; active = well fitted falling curve with a large enough effect; inconclusive = small, poorly fitted or top-dose-only effect; inactive = no such curve, though single readings can be large or run the other way; note: nearly all actives have a fitted effect of over 60% in size; overnight with compound
Active calls of the source: *; ? = inconclusive; & = joins results of further samples; [ ] = remark or other dose. % is set by controls: 0 for no effect and ±100 for the full control effect; potency is the fitted concentration of half-maximal effect. Not a hit list, and some 0.55% of all compounds hit somewhere here.

compound,2A Renilla,2A firefly
CCc1c(C)nc(Nc2nc(C)c3cc(OC)ccc3n2)[nH]c1=O,-10.3%,0.4%
COc1c(Cl)cc(C(=O)Nc2cc(-c3nc4ccccc4[nH]3)ccc2C)cc1Cl,-22.9%,-19.9%
Cc1cc(-c2csc(NC3CCCCC3)n2)c(C)n1NC(=O)c1nn(C)c(=O)c2ccccc12,-15.7%,-2.0%
NCCc1ccc(OC(F)F)cc1,-11.0%[1.06 µM],2.5%
CC(C)C(=O)/C(C#N)=C\c1ccc(OCc2cccc(F)c2)cc1,1.6%,155.6%[activator]
O=C(/C=C/c1ccc(-c2ccc(Cl)c(Cl)c2)o1)c1ccc(Cl)cc1,-3.6%,28.0%
COc1ccccc1/C=C/c1nc(C#N)c(NCCCn2ccnc2)o1,11.5%,0.0%
COCCNC(=O)C1=CC(c2ccc3c(c2)OCO3)=NS(=O)(=O)N1C,24.5%,8.2%

The results go on:
compound,2A Renilla,2A firefly
COc1ccc(C2CC(=O)N(Cc3cccc(F)c3)c3ccccc3S2)cc1 (stereo not given),-19.4%,?
CCS(=O)(=O)N1CCC(NS(=O)(=O)c2ccsc2C(=O)OC)CC1,2.7%,-8.4%
Cc1c(C)c2cc(Cl)c(OC(C)C(=O)NCc3cccnc3)cc2oc1=O (stereo not given),-8.2%,9.0%
c1ccc(-c2ccc(-c3ccn[nH]3)cc2)cc1,8.7%,114.5%[activator]
CCc1ccc(NC(=O)c2sc(-n3nc(C)c(Cc4ccc5c(c4)OCO5)c3C)nc2C)cc1,-5.5%,-7.5%
Nc1nnnn1NCc1cc(Cl)ccc1OCc1ccc(F)cc1Cl,45.5%[activator],-19.4%
COc1ccccc1NC(=O)C(C)OC(=O)c1ccc2ccccc2n1 (stereo not given),-4.1%,11.7%
Cc1ccc(NC(=O)c2ccco2)c(NC(=O)Cc2cccs2)c1,20.4%,44.9%[activator]

One compound at a time, as listed above:
COc1ccccc1NC(=O)C(C)OC(=O)c1ccc2ccccc2n1 (stereo not given) is entered as 2A Renilla = -4.1%; 2A firefly = 11.7%
CCS(=O)(=O)N1CCC(NS(=O)(=O)c2ccsc2C(=O)OC)CC1 is entered as 2A Renilla = 2.7%; 2A firefly = -8.4%
CCc1ccc(NC(=O)c2sc(-n3nc(C)c(Cc4ccc5c(c4)OCO5)c3C)nc2C)cc1 is entered as 2A Renilla = -5.5%; 2A firefly = -7.5%

The listing continues.
compound,2A Renilla,2A firefly
COCCn1c(-n2nc(C)cc2C)nc2c1c(=O)n(CC(=O)OC)c(=O)n2C,-4.6%,0.6%
CCc1cc(=O)oc2cc(OC(C)C(=O)NCc3cccnc3)ccc12 (stereo not given),-4.9%,-15.4%
Cc1cc(C)c2oc(C(=O)N3CCC(Cc4ccccc4)CC3)cc(=O)c2c1,6.6%,-15.3%
O=C(NCc1ccccc1)C1CCCN(S(=O)(=O)c2cccc3nsnc23)C1 (stereo not given),10.5%,-27.8%
CC(C)c1ccc(Nc2cc(C(=O)NCCCN(C)Cc3ccccc3)c3ccccc3n2)cc1,-12.4%,-15.9%
C1CCCN(CCNC2CCCC2)CC1,-8.0%,-13.9%
CC(=O)c1ccc(NC(=O)COC(=O)c2csc(NCc3ccccc3)n2)cc1,-7.6%,20.7%
CCCNC(=O)Cn1c(=O)n(CC2CCC(C(=O)NC)CC2)c(=O)c2sccc21 (stereo not given),-6.4%,-12.4%

(listing goes on)
compound,2A Renilla,2A firefly
Cc1cccc(NC(=O)C2CCCN2S(=O)(=O)c2ccc3nc(-c4ccccc4)[nH]c3c2)c1 (stereo not given),-16.7%,-11.8%
CCOc1cc(CNC(=O)c2ncoc2-c2ccc(OC)cc2)cc(OCC)c1OCC,?,?
CC(C)Cc1ccc(C(C)C(=O)NC(c2ccccc2)c2ccccc2)cc1 (stereo not given),?,?
c1coc(-c2cc(CSc3ccc4c(c3)OCCCO4)no2)c1,21.0%,0.0%
COc1ccccc1N1CCN(C(=O)Cn2c(=O)nc(-c3ccccc3)c3ccccc32)CC1,-2.7%,0.0%
CCCC(O)C(CC)CO (stereo not given),-2.7%,-5.0%[11.5 µM]
COC(=O)C1C(=O)C=C(N)CC1c1ccco1 (stereo not given),-12.7%,-8.4%
CCc1ccccc1-n1c(N)c(C(=O)OC)c2nc3ccccc3nc21,-2.6%,5.5%

Going on with the list.
compound,2A Renilla,2A firefly
Clc1ccc(-c2noc3ncnc(NCCc4ccccc4)c23)cc1,7.2%,2.6%
CN1CCN(c2oc(-c3ccc(COc4ccc(Cl)cc4)o3)nc2C#N)CC1,-10.6%,-2.3%
O=C(CSCc1cnn(-c2ccccc2)c1-n1cccc1)NCc1ccccc1F,28.1%,-12.4%
COc1ccccc1CC(=O)Nc1ccc2nc(Nc3cccc(Cl)c3)cc(C)c2c1,2.9%,-11.5%
Cc1ccc(-n2c(SCC(=O)Nc3ccc4c(c3)OCCO4)nc3c([nH]c4ccccc43)c2=O)cc1,-0.6%,23.9%
CCN(C(=O)c1cc2ccc(OC)cc2[nH]1)C1CCCCC1,-7.2%,148.2%[activator]
CC(C)COc1ccc(C(=O)Nc2cccc(-c3nc4ccccc4[nH]3)c2)cc1,-26.2%,-39.7%
N#Cc1nc(COc2ccc3c(c2)OCO3)oc1NC1CC1,7.6%,0.0%

Following part
compound,2A Renilla,2A firefly
CCOC(=O)c1cnc2c(C)c(Cl)ccc2c1Nc1ccc(N2CCOCC2)cc1,-10.1%,-11.2%
COc1cc(OC)c(OC)cc1/C=C/c1nc2cc3ccccc3cc2c(=O)n1-c1ccccc1Br,-14.9%,-16.7%
COC(=O)c1c(C)[nH]c(-c2ccc(OC)cc2F)c1C1C(=O)Nc2ccccc21 (stereo not given),0.0%,-1.1%
COc1nnc(-c2ccc(N3CCCCC3)c(NC(=O)c3ccc(Cl)cc3)c2)c2ccccc12,13.2%,0.0%
CCCn1c(N)c(N(CCOC)C(=O)c2cc3c(s2)CCC(CC)C3)c(=O)[nH]c1=O (stereo not given),0.0%,0.0%
COc1ccc2c(c1)OCCN(c1ccc(NC(=O)c3ccc(F)cc3)cc1C(=O)O)C2,3.6%,15.9%
CCc1ccccc1NC(=O)CN1CCN(C(=O)CN(C)Cc2cnn(-c3ccccc3)c2)CC1,-19.4%,-8.7%
COc1ccc2c(c1)cc1c(=O)n(CC(=O)NC(C)C)nc(C)n12,-3.8%,-12.7%

The results go on:
compound,2A Renilla,2A firefly
CCc1ccc(NC(=O)CCn2c(-c3ccc(OC)cc3)cc(C(C)=O)c2C)cc1,-0.7%,-5.5%
CC1CCCCN1C(C)CNC(=S)Nc1ccc(Cl)cc1Cl (stereo not given),3.4%,-4.7%
Cc1cc(C)c(S(=O)(=O)NCC(c2ccco2)S(=O)(=O)c2cccs2)c(C)c1 (stereo not given),236.4%[activator],-14.7%
COc1ccc(-c2cc3ccc(OC(C)=O)cc3oc2=O)cc1,0.0%,153.8%[activator]
Cc1ccccc1Cn1c(=O)n(Cc2ccco2)c(=O)c2sc3ccccc3c21,-12.1%&-6.9%,-12.6%&-14.3%
CCC(=O)NCCc1nc2cc(NC(=O)c3cccc(Br)c3)ccc2n1C,-8.7%,89.9%[activator]
CCCCSc1nc2c(c(=O)n(C)c(=O)n2C)n1C/C=C/c1ccccc1,3.5%,-8.1%
CCCNc1nc2ccccc2nc1S(=O)(=O)Cc1ccc(Cl)cc1,-13.3%,5.4%

(list continues)
compound,2A Renilla,2A firefly
COc1ccc(NC(=O)C2CCCN(S(=O)(=O)c3ccc4c(c3)CCCC(=O)N4)C2)cc1OC (stereo not given),14.6%,21.0%
Cc1ccc(C(=O)Nc2ccccc2F)cc1S(=O)(=O)N1CCOCC1,11.0%,63.6%[activator]
Cc1ccc(NC(=O)C(C#N)=C2CCCCC2)cc1,0.0%,246.5%[activator]
N#Cc1c(N)n[nH]c1CCCNC(=O)c1ccc(Cn2nnc3ccccc32)cc1,2.8%,4.4%
O=C(Nc1c(NCC2CCCCC2)c2ccccc2oc1=O)c1cccc(F)c1,0.0%,44.9%[activator]
Cc1ccc(S(=O)(=O)c2c(Nc3ccc(C)c(C)c3)sc(C(=O)c3ccc4c(c3)OCO4)c2N)cc1,-13.7%,-18.4%
Cc1cc(Cl)ccc1OCC(=O)OCC(=O)Nc1ccccc1,-4.3%,40.4%[activator]
COc1cccc(-c2cc(C(=O)NCc3ccccc3)[nH]n2)c1,52.8%[activator],120.3%[activator]

Continued.
compound,2A Renilla,2A firefly
COc1ccc(-n2c(SCC(=O)c3c[nH]c(C(=O)N4CCCC4)c3)nnc2-c2ccncc2)cc1,50.9%[activator],52.6%[activator]
O=C(Cn1c(=O)c2ccccc2n(CC(=O)Nc2ccc(F)cc2F)c1=O)NCCc1ccccc1,-18.9%,-10.3%
Cc1ccc(Cn2ccnc2SCC(=O)NCc2ccc3c(c2)OCO3)cc1,17.0%,2.4%
CCOC(=O)N1CCN(C(=O)c2cc3ccccc3[nH]2)CC1,-0.8%,0.0%
CCCCc1ccc(C(=O)NCc2ccncc2)cc1,?,?
O=C(NC(c1ccccc1)c1ccccc1)C12CC3CC(CC(O)(C3)C1)C2,21.4%,22.9%
COc1cc(COc2cccc(C(C)=O)c2)c(OC)cc1Br,0.0%,21.2%
Cc1ccc(CN2CCSc3ccc(C(=O)N4CCN(c5cc(C)ccc5C)CC4)cc32)cc1,1.6%,-14.9%

Next structures.
compound,2A Renilla,2A firefly
CCOC(=O)C(C#N)C(C#N)c1ccccc1 (stereo not given),1.7%,5.9%
Cc1ccc(NC(=O)C(=O)c2c[nH]c3ccccc23)c(C)c1,2.5%,105.5%[activator]
COc1ccc(CC(/C=C/c2ccc(F)cc2)c2ccccc2)cc1 (stereo not given),87.4%[activator],26.8%
CCCN(CCC)CCc1cccc2c1CC(=O)N2,-14.7%,-21.4%
CCOc1ccccc1-c1noc(CSc2nnc(-c3ccccc3)n2-c2cccc(C)c2)n1,-8.5%,-13.3%
CCc1cccc(NC(=O)c2ccc3c(c2)N(Cc2cccc(Cl)c2)C(=O)c2ccccc2S3=O)c1 (stereo not given),-1.5%,-9.6%
CC(C)CC(=O)Nc1ccc2oc(-c3ccc(Cl)cc3)nc2c1,1.0%,123.7%[activator]
c1ccc(-c2nnc(CSc3nnc(C4COc5ccccc5O4)o3)o2)cc1 (stereo not given),1.1%,0.0%

Later entries:
compound,2A Renilla,2A firefly
COc1ccc(CCNc2nc(SCc3cccc(F)c3)nc3ccccc23)cc1OC,-14.0%,-26.2%
CCC(CC)C(=O)Nc1sc(Nc2ccc(C)cc2)nc1C(N)=O,-10.6%,14.4%
Cc1c(Cc2ccccc2)c(=O)oc2c(C)c(OCC(=O)N(C)C)ccc12,30.6%[activator],14.4%
COc1ccc(C(=O)OCc2ncc(-c3ccccc3)o2)c(O)c1,-12.5%,128.9%[activator]
CCCn1nc(C(=O)OCC(=O)Nc2ccc3c(c2)OCO3)c2ccccc2c1=O,-13.9%,-17.2%
COc1ccc(-c2nc(Nc3ccccc3C)c3ccccc3n2)cc1,-5.8%,17.7%
COc1ccc(-c2nc(CS(=O)CC(=O)N3CCN(C)CC3)c(C)o2)cc1OC (stereo not given),0.6%,10.3%
Cc1cc(C)cc(NC(=O)CSc2nc3nccnc3c(=O)n2CCc2ccccc2)c1,-1.9%,3.2%

Continuation:
compound,2A Renilla,2A firefly
O=C(O)c1ccc(O)c(Cl)c1,0.5%,1.5%
Cc1ccccc1-c1nc(SCC(=O)NCC2CCCO2)c2c(=O)n(C)c(=O)n(C)c2n1 (stereo not given),23.1%,45.7%[activator]
O=C(Nc1cc2c(cc1C(O)c1ccc(Br)cc1)OCCO2)c1ccc(F)cc1 (stereo not given),65.3%[activator],-10.2%
Cc1nc(C)c(C(=O)c2ccccc2)cc1C(=O)c1ccccc1,-11.2%,-21.7%
Clc1ccc(Cc2nc(-c3ccc(Br)o3)no2)cc1,24.8%,90.8%[activator]
Cc1cc(C)c2oc(-c3cc(NC(=O)Cc4ccccc4)ccc3Cl)nc2c1,-3.5%,-5.8%
Cc1ccccc1CN1CCC(CNC(=O)c2cccc3c2SCCC3=O)CC1,-12.5%,-14.4%
Cc1cnc(C(=O)Nc2ccccc2C(=O)NCCc2ccccc2)cn1,-6.9%[1.06 µM],232.2%[activator]

(further entries)
compound,2A Renilla,2A firefly
N#CCSc1ccccc1C(=O)NC1CC1,8.0%,-1.4%
O=C(NCC(c1ccco1)N1CCCC1)c1cc2ccccc2oc1=O (stereo not given),-7.9%,-1.6%
COc1ccc(-c2c(C)nn3c(-c4ccccc4)cc(-c4ccccc4)nc23)cc1OC,-5.5%,-7.3%
CC(C)Oc1ccc2c(=O)c(-c3ccccc3)coc2c1,11.5%&2.6%,120.8%[activator]
CC(C)C(C)NC(=O)c1csc2c1CCCC2 (stereo not given),11.7%,32.7%[activator]
CN(C(=O)CN1CCN(c2oc(-c3ccco3)nc2C#N)CC1)c1ccccc1,-7.5%,-10.5%
CCOC(=O)CS(=O)(=O)C(c1ccccc1)S(=O)(=O)CC(=O)OCC,1.1%,4.2%
N#CC1=C(N)OC2=C(C(=O)CCC2)C1c1ccc(OC(=O)c2ccccc2)cc1 (stereo not given),5.9%,12.5%
O=C(CSCc1ccc(F)cc1)NCc1ccc(F)cc1,-1.2%,17.5%

Looked up by compound from the entries so far:
compound,2A Renilla,2A firefly
CN(C(=O)CN1CCN(c2oc(-c3ccco3)nc2C#N)CC1)c1ccccc1,-7.5%,-10.5%
CC(C)C(C)NC(=O)c1csc2c1CCCC2 (stereo not given),11.7%,32.7%[activator]
